Assay outcomes (PubChem BioAssay)
gsp ag = activates gsp, the McCune-Albright syndrome mutation. AID 624287. gsp mutant cells, cAMP HTRF, 30 min; control for the full effect not named in the record. Potency, µM (top dose mostly 76.9 µM), without a hit: at the top dose activation (cAMP increase), usual class: activators. 340,000 compounds, 0.13% hits; active = well fitted activation curve with a large enough effect; inconclusive = small, poorly fitted or top-dose-only effect, or another doubt; inactive = no such curve, though single readings can be large or run the other way; cell line not stated here;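 note: phosphodiesterase inhibitor Ro 20-1724 added with compounds to block cAMP breakdown; potency is the fitted concentration of half-maximal effect; nearly all actives have a fitted effect of over 60% in size; about a fifth of the inactives were tested at one dose only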
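Cells in DMEM/10% FBS with G418 were pretreated with compounds in DMSO plus […] (300 uM stock) for 30 min at 37C. cAMP was measured by HTRF (cAMP-d2 plus anti-cAMP antibody-K) after 30 min at room temperature.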
gsp antag = gsp mutant antagonism. AID 624288. 340,000 compounds, 0.4% hits. gsp-mutant cells, cAMP HTRF, 30 min; control for the full effect not named in the record. Potency, µM (doses to about 76.9 µM), inactives show at the top dose activity change, negative = inhibition, hits mostly inhibitors; active = falling curve of any shape with a large fitted effect; inconclusive = falling curve, mostly with a smaller effect; inactive = flat or rising curve; cell line not stated here;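 note: intracellular cAMP measured with PDE inhibitor Ro 20-1724 present during compound exposure; potency is the fitted concentration of half-maximal effect; % is set by controls: 0 for no effect and ±100 for the full control effect; nearly all actives have a fitted effect of over 65% in size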
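Measurement of cellular cAMP by homogeneous time-resolved fluorescence following a 30 min compound exposure at 37C. The PDE inhibitor […] was present throughout; the assay buffer was DPBS with 0.05% BSA and 0.005% Tween 20.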
TRPML1 agonist = agonists of human TRPML1 channel; Q9GZU1; TRPML1-expressing cells, Ca2+ dye fluorescence, FDSS; host cell line not named in the record; reference of the full effect not given here; activation, % (test concentration not listed); 410,000 compounds, 0.12% hits; in the data active = activation above about 50%; inconclusive = about 30% to 50%; inactive = below about 30%; note: 0% is about no effect; the text of the record puts the active cut at 80%
Target sequence (Q9GZU1 whole entry, looked up): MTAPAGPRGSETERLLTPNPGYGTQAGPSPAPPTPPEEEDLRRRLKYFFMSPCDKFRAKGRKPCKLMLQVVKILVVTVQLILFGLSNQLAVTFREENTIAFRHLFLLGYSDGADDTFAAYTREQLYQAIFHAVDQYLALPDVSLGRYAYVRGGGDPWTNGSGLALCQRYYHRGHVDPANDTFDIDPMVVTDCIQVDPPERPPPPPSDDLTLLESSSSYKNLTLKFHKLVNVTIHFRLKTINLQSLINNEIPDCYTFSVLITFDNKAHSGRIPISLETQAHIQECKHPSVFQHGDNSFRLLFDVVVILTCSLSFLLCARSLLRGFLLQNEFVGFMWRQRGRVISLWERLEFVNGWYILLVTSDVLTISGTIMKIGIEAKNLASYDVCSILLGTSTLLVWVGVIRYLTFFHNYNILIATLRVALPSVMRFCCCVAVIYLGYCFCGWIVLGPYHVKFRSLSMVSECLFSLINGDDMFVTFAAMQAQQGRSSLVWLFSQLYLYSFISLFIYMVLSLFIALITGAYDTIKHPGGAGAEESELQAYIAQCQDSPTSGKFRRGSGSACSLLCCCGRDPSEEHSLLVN
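Cells: TRPML1-DL, 1X Tet inducer, ~16 h at 37 degrees C/5% CO2. Dye: ABD Ca8 no-wash + quencher, 45-90 min RT. Read: 10 s baseline, compound add, 110 s agonist phase; 54-4 EC80 (4uM final), 110 s antagonist phase.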
Menin MLL FP FL = inhibitors of human menin-MLL interaction, wild-type MLL peptide | AID 1766 | Fluorescence polarization, fluorescein-MLL peptide displacement from menin | FP activity change, % at 61.4 µM | 290,000 tested, under 10 active; inconclusive = falling polarisation curve, or a change in total fluorescence; inactive = total fluorescence flat and polarisation flat or rising; no compound was filed as active; the % refers to the polarisation; negative = inhibition;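 note: % of control where 0% means no effect; inhibitors lower the polarisation; unlabelled MLL peptide was the positive control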
TRPML1 blocker = blocks the human TRPML1 channel; Q9GZU1; TRPML1-inducible cells, Ca2+ dye fluorescence, FDSS; stronger effect = lower value; inhibition of EC80 agonist-evoked calcium signal; activity change, negative = inhibition, % (test concentration not listed); 390,000 compounds, 0.02% hits; AID 624415; in the data active means activity change below about -50%; inconclusive means about -30% to -50%; inactive means above about -30%;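 note: stimulus is agonist 54-4 at its EC80 concentration; % is set by controls: 0 for no effect and ±100 for the full control effect; compound concentration not given in the record; the text of the record puts the active cut at -80%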
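Tet-induced TRPML1-DL cells loaded with Ca8 no-wash calcium dye were read kinetically on FDSS. Compound addition was followed by EC80 agonist 54-4 (4 uM final); inhibition was read over 110 s.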
ClpP mod = qHTS Assay for Activators of ClpP; purified B. subtilis ClpP, FRET peptide cleavage, 20 min; ATP-dependent Clp protease proteolytic subunit (Bacillus subtilis (strain 168)), P80244; AID 651965, 2013; Potency, µM (top dose mostly 57.5 µM), for inactives: top-dose activity change, negative = active; 340,000 compounds, 1.9% hits; active = well fitted falling curve with a large enough effect; inconclusive = small, poorly fitted or top-dose-only effect; inactive = no such curve, though single readings can be large or run the other way; note: potency is the fitted concentration of half-maximal effect; the source files actives as falling curves though it sought activators and does not explain the sign; nearly all actives have a fitted effect of over 65% in size; many hits overshoot -100%
Target sequence (P80244 whole entry, looked up): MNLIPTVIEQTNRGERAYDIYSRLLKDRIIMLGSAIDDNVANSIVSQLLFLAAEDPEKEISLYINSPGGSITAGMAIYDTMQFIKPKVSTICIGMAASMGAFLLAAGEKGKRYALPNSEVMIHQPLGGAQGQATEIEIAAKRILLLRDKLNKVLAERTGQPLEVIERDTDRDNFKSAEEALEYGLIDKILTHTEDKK
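FRET quenching reversal measured ClpP activation: 10 microg/mL B. subtilis ClpP at pH 8 with the FRET-FV decapeptide, read at 430 nm after 320 nm excitation. The 20-min minus 0-min signal was scaled between DMSO/no-enzyme wells and ADEP (5.8 microM final).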
* = called active by the depositor; ? = inconclusive; nt = not tested or not shown; & = joins results of further samples; [ ] = remark or other dose.

SMILES	gsp ag	gsp antag	TRPML1 agonist	Menin MLL FP FL	TRPML1 blocker	ClpP mod
Cc1ccc(CN(C)C(=O)c2cc(COc3ccc(F)cc3Cl)on2)o1	-6%[15.4 µM]	-4%	2.3	-0.8	0	nt
COc1ccc(/C(C)=N/OC/C(O)=C(\C#N)c2nc3ccccc3[nH]2)c(OC)c1	3%	5%	1.6	6.3	18	-1.3%
Cc1onc(-c2c(F)cccc2Cl)c1C(=O)N(C)CCc1ccccn1	7%[15.4 µM]	10%	0.1	nt	-15	-4.2%
Cc1ccc2nc(NCC(=O)O)nc(-c3ccccc3)c2c1	-13%	-4%	0.0	7.9	-8	-30%
O=P(c1ccccc1)(c1ccccc1)C(O)c1ccco1 (centres undefined)	-21%	21%	0.9	2.1	25	-1.0%
COc1cccc(CNC(=O)c2cccc(NC3=NC4CS(=O)(=O)CC4S3)c2)c1 (centres undefined)	-58%[inhibitor]	6%	-0.1	-4.9	54	-0.4%
CCCCOC(=O)c1ccc(NC(=O)/C(C#N)=C/c2ccc(C)o2)cc1	nt	nt	0.8	nt	-1	2.3%
O=C(COc1ccccc1)c1ccccc1	28%	-1%	-1.0	nt	30	nt
COc1ccc(Nc2nc3c(S(=O)(=O)c4ccc(C)cc4)nnn3c3ccsc23)cc1Cl	nt	nt	-0.2	nt	-8	-5.0%
COc1ccc(N2CCN(C(=O)COCc3cc(-c4ccc5c(c4)OCO5)on3)CC2)cc1	2%	-3%	-0.5&0.7	-0.7	-2&-2	-14%&-8.1%
Cc1cccc(NC(=O)Cn2c(=O)n3nc(CCn4nc(C)cc4C)nc3c3ccccc32)c1	?	4%	1.0	2.7	30	-0.9%
N#Cc1cccn1-c1nccs1	4%[15.4 µM]	15%	1.1	-3.1	15	nt
CCOC(=O)N1CCC(NC(=O)CCC(=O)c2ccccc2)CC1	-8%	-1%	-0.1	-0.1	14	-0.1%
CC(C)NC(=O)CCCn1c(=S)[nH]c2cc3c(cc2c1=O)OCO3	7%	17%	-1.3	?	-14	0.2%
O=C(CSc1nnc(Cn2c(=O)sc3ccccc32)n1-c1ccccc1)N1CCCC1	-55%	8%	3.7	3.0	12	0.9%
Cc1snc(SCc2ccc(F)cc2)c1C#N	-25%	-5%	4.3	5.6	-2	nt
CCCCc1ccc(S(=O)(=O)N2CCN(C(=O)c3ccco3)CC2)cc1	-55%[inhibitor]	3%	0.5	-0.4	9	-11%
Cc1ccccc1NC(=O)c1c(NC(=O)C(C)Oc2cccc(Cl)c2)sc2c1CCCC2 (centres undefined)	nt	nt	0.7	nt	11	3.6%
CC1Cc2ccccc2N1CC(=O)NC(=O)NCc1ccccc1 (centres undefined)	-29%	3%	0.5	0.5	-3	-2.8%
CCOc1ccccc1C(C(=O)NC1CCCC1)N(Cc1ccco1)C(=O)CNC(=O)c1ccco1 (centres undefined)	4%	2%	-0.4	4.6	12	0.0%
COC(=O)CSc1ccc2nnc(CCNS(=O)(=O)c3ccc(C)cc3)n2n1	3%	1%	2.6&-0.3	-1.4	-14&-12	-17%&-19%
CCN1C(=O)CS/C1=N\S(=O)(=O)c1ccc(Cl)cc1	4%[15.4 µM]	1%	-0.7	2.9	8	nt
C=CCN(CC=C)CCOc1cc(C)ccc1[N+](=O)[O-]	0%[15.4 µM]	-1%	0.2	3.0	-7	nt
CCOC(=O)c1c(S(=O)(=O)NCC(=O)Nc2ccccc2F)c(C)n(C)c1C	?	13%	-0.4	nt	-14	-0.2%
CN(C)S(=O)(=O)c1cccc(NC(=S)NCCc2ccccn2)c1	-31%[inhibitor]	7%	0.0	0.5	-7	-1.7%
O=C(COc1ccc(C(=S)N2CCCC2)cc1)Nc1ccccc1C(F)(F)F	-25%[15.4 µM]	-1%	2.0	-5.4	13	-2.6%
CC1CCN(C2=C(NS(=O)(=O)c3ccc(Br)cc3)C(=O)c3ccccc3C2=O)CC1	-15%	-16%	-0.2	3.0	-11	-0.6%
CCO[C@@H]1OC(C(=O)N2CCN(Cc3ccccc3)CC2)=C[C@H](c2cn(C(C)=O)c3ccccc23)[C@H]1CCCO	nt	-15%	3.4	0.5	-13	1.6%
COc1cc2c3c(c1)/C(=C1/SC(=S)NC1=O)C(=O)N3C(C)(C)C=C2C	-10%	-10%	-0.1	8.0	6	-1.3%
Cc1nc2c(ccc3nc(NC(=O)c4ccc5c(c4)OCCO5)sc32)s1	-20%	9%	0.4&-0.2	6.3	-9	-12%&4.3%
COc1ccc(Cn2c(=O)[nH]c3cc(OC)c(OC)cc3c2=O)cc1	7%	11%	-0.7	3.4	-8	?
O=C(Nc1ccc2oc(-c3ccccc3)nc2c1)c1ccc2ccccc2c1	nt	nt	1.7	nt	-16	3.8%
CCOc1ncccc1C(=O)Nc1ccc2c(c1)OCO2	-10%[15.4 µM]	6%	-0.2	-2.6	14	nt
Cc1cc(C)cc(Nc2ccc([N+](=O)[O-])nc2[N+](=O)[O-])c1	-11%	5%	-0.4	-1.0	-11	0.2%
COc1ccc(NS(=O)(=O)c2ccc(C)c(C(=O)NNC(=O)c3csc(N4CCOCC4)n3)c2)cc1	34%[15.4 µM]	-7%	-0.4	nt	8	nt
Cc1cc(C)n(-c2nnc(NC34CC5CC(CC(C5)C3)C4)nn2)n1	-2%	-1%	1.6	0.2	58	2.4%
CC1CCCN(CC(=O)Nc2cc(S(=O)(=O)N3CCOCC3)ccc2N2CCCC2)C1 (centres undefined)	-5%	6%	-0.2	nt	-4	-0.7%
O=C(NCc1nnnn1-c1ccc(Cl)cc1)c1ccc([N+](=O)[O-])o1	-40%[inhibitor]	nt	-1.0	nt	-9	0.8%
CCOc1ccc(C(=O)NC(=S)Nc2cccc(NC(=O)c3ccco3)c2)cc1[N+](=O)[O-]	-20%	-10%	0.8	5.1	-13	2.4%
CCn1c(SCC(=O)Nc2ccccc2N2CCOCC2)nnc1-c1ccccc1O	-6%	-5%	-0.5	5.9	3	0.7%
CCC(C)(C(=O)NC1CCCC1)N(C(=O)c1cnccn1)c1ccccc1 (centres undefined)	0%	3%	-0.4	2.8	-6	-0.1%
Cc1cc(NC(=O)c2cnn3c(C(F)(F)F)cc(-c4ccc(Br)cc4)nc23)no1	-79%[inhibitor]	-23%	0.5	1.6	10	-3.3%
Cc1cc2c3c([nH]c2cc1S(=O)(=O)N1CCC2(CC1)OCCO2)CC(C)(C)CC3=O	-23%	-3%	0.2	-1.1	7	-11%
COc1cc2c(cc1OC)n(CC(=O)Nc1ccccc1)c(=O)n1nc(-c3ccccc3)nc21	nt	nt	0.0	nt	-12	-2.7%
CC1CCN(c2oc(-c3ccccc3Cl)nc2C#N)CC1	-2%	-7%	1.0	-4.8	27	28µM*
CC(=O)c1c(C)nc(-c2ccc(Cl)cc2)nc1N	0%	25%	-0.2	45[activator]	11	nt
O=C(O)CCCC(=O)Nc1ccc(Cl)c(Cl)c1	29%	1%	-0.6	1.5	43	1.4%
COc1ccc(CCNC(=O)CCc2ccc(S(=O)(=O)NCC(C)C)cc2)cc1	1%[15.4 µM]	-21%	-0.6	1.8	-7	-1.8%
Cc1ccccc1NC(=O)NCCN1C(=O)C2C3C=CC(C3)C2C1=O (centres undefined)	-18%	-1%	0.6	1.8	7	-1.5%
O=C(CN1CCC(NC(=O)Cc2ccccc2)CC1)Nc1cccc2ccccc12	-18%	-2%	-0.4	-2.9	-20	0.3%
O=C(NCc1ccco1)c1ccc2c(c1)N(Cc1ccc(F)cc1)C(=O)c1ccccc1S2=O (centres undefined)	nt	nt	-0.4	nt	-9	-2.8%
CCOC(=O)c1c(S(=O)(=O)NCC(=O)Nc2cccc(CC)c2)c(C)n(C)c1C	nt	nt	2.9	nt	-2	1.7%
CCC(=O)c1ccc(OCC(=O)Nc2nc(C)cs2)cc1	15%[15.4 µM]	-11%	-0.6	nt	-14	0.4%
O=S(=O)(c1cccc2ccccc12)N1CCN(c2ccc(Cl)c(Cl)c2)CC1	nt	nt	1.5	nt	5	-13%
C[C@H](CO)N1C[C@H](C)[C@@H](CN(C)Cc2cccc(O)c2)OCc2cnnn2CCCC1=O	-35%	nt	-0.3	nt	19	0.7%
CC(C)Oc1ccc2c(c1)OC(c1ccccc1)(C(F)(F)F)NC2=O (centres undefined)	2%[15.4 µM]	15%	-0.1	nt	5	2.5%
O=C(COc1cccnc1[N+](=O)[O-])Nc1cc(Cl)ccc1Cl	-13%	1%	0.5	nt	37	nt
C/C(=N\NC(=O)c1nnn(-c2nonc2N)c1CN1CCOCC1)c1ccc(CC(C)C)cc1	-8%	4%	-0.7	-2.6	-5	-0.8%
CCOC(=O)Cc1nn(Cc2ccccc2)c(=O)c2ccccc12	16%[15.4 µM]	-5%	-0.6	-0.8	19	-1.8%
CCCSc1oc(-c2ccco2)nc1S(=O)(=O)c1ccc(Cl)cc1	nt	nt	0.3	nt	-10	?

Continued.
SMILES	gsp ag	gsp antag	TRPML1 agonist	Menin MLL FP FL	TRPML1 blocker	ClpP mod
Cc1ccc(C)c(CN2C(=O)c3ccccc3S(=O)c3ccc(C(=O)N(C)Cc4ccccc4)cc32)c1 (centres undefined)	nt	nt	-0.1	nt	-10	-0.7%
CC(C)NC(=O)c1cccc2c(-c3ccc(F)c(F)c3)coc12	nt	nt	-0.8	nt	43	-9.0%
Cc1nc2nc(CSc3nnc(C)s3)cc(=O)n2[nH]1	-19%&23%	13%&9%	-0.3&0.5	1.5	5&40	-1.8%
COc1ccc(C(=O)NC(=S)NNC(=O)c2ccccc2C)cc1	-1%[15.4 µM]	7%	9.7	nt	-9	1.1%
Cc1c(C(=O)N(Cc2ccccc2)C2CCS(=O)(=O)C2)oc2ccccc12 (centres undefined)	?	-10%	-0.2	-1.0	0	-1.0%

Four of these compounds, set out differently.
> Cc1cccc(NC(=O)Cn2c(=O)n3nc(CCn4nc(C)cc4C)nc3c3ccccc32)c1
  gsp ag: ?
  gsp antag: 4%
  TRPML1 agonist: 1.0
  Menin MLL FP FL: 2.7
  TRPML1 blocker: 30
  ClpP mod: -0.9%

> N#Cc1cccn1-c1nccs1
  gsp ag: 4%[15.4 µM]
  gsp antag: 15%
  TRPML1 agonist: 1.1
  Menin MLL FP FL: -3.1
  TRPML1 blocker: 15
  ClpP mod: nt

> CCOC(=O)N1CCC(NC(=O)CCC(=O)c2ccccc2)CC1
  gsp ag: -8%
  gsp antag: -1%
  TRPML1 agonist: -0.1
  Menin MLL FP FL: -0.1
  TRPML1 blocker: 14
  ClpP mod: -0.1%

> CC(C)NC(=O)CCCn1c(=S)[nH]c2cc3c(cc2c1=O)OCO3
  gsp ag: 7%
  gsp antag: 17%
  TRPML1 agonist: -1.3
  Menin MLL FP FL: ?
  TRPML1 blocker: -14
  ClpP mod: 0.2%

No enrichment for hits; about 2.1% have a hit in one of these screens.
